DUX4 txn inh: DUX4-mediated transcription inhibition. activity change, negative = inhibition, % (no concentration beside the values). 293T-iDUX4 ZSCAN4-Gaussia luciferase reporter, 24 h; hits give low values. AID 1224904. 0.8% of 37,000 active;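 active means -10% or lower and over 25 points stronger than a control reporter; inconclusive means -10% or lower with a smaller gap; inactive means above -10%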;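 further: 0% = median of neutral control wells and -100% = median of positive control wells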
DUX4 txn inh difference: second read-out of DUX4 txn inh, no call of its own (marks repeat the call); Gaussia minus Italica difference, %; measured here: selective DUX4 reporter inhibition;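 worked out from the two reporters; negative = selective loss of the DUX4 reporter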
DUX4 txn inh control: recorded beside DUX4 txn inh, whose call it bears; activity change, negative = inhibition, %; measured here: Italica tet-on control reporter;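 0 = neutral control and -100 = positive control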
* marks the source's active call; other numbers are inactive results; ? = inconclusive; . = no result given; & = joins results of further samples.

SMILES	DUX4 txn inh	DUX4 txn inh difference	DUX4 txn inh control
C[C@@H]1CN([C@@H](C)CO)C(=O)CCCn2cc(nn2)CO[C@@H]1CN(C)S(=O)(=O)c1ccc(C#N)cc1	-6	-7	1.1
O=C(Nc1cccc(F)c1)N1CC(=O)N2[C@H](CO)[C@@H](c3ccc(C#CCC4CCCC4)cc3)[C@H]2C1	-7	9	-16
CCCNC(=O)N1C[C@H]2[C@@H](c3ccccc31)[C@@H](CO)N2C(=O)NC(C)C	-2	-4	1.6
CCC(=O)N1[C@@H](C#N)[C@@H](c2ccccc2-c2cccc(C)c2)[C@@H]1CO	5	4	0.9
CN(C)CC(=O)N[C@H]1CC[C@@H](CCNS(=O)(=O)c2ccccc2)O[C@@H]1CO	6	3	2.6
O=S(=O)(c1ccccc1)N1CC2(C1)[C@@H](c1ccccc1)[C@H](CO)N2CC1CC1	?	.	.
C[C@H]1CCCCO[C@H](CN(C)S(=O)(=O)c2ccccc2)[C@@H](C)CN([C@@H](C)CO)C(=O)c2cc(NS(C)(=O)=O)ccc2O1	0	-5	4.7
CNC[C@@H]1Oc2cc(C#CCC3CCCC3)ccc2S(=O)(=O)N([C@@H](C)CO)C[C@H]1C	-3	-4	0.8
CC(=O)N1[C@@H]2c3ccc(C4=CCCCC4)c(=O)n3C[C@@H]2[C@@H](CO)[C@@H]1C(=O)Nc1ccccc1	-5	-14	8.5
O=C(O)C[C@H]1C[C@@H]2c3cc(NC(=O)CC4CC4)ccc3O[C@@H]2[C@H](CO)O1	7	2	4.7
CNC[C@H]1OCCCC[C@H](C)Oc2ccc(NC(=O)c3ccncc3)cc2C(=O)N([C@@H](C)CO)C[C@@H]1C	2	1	0.8
C[C@@H]1CN([C@H](C)CO)C(=O)c2cccc(NC(=O)CCCCCC(=O)Nc3ccccc3N)c2O[C@@H]1CN(C)S(=O)(=O)c1cn(C)cn1	-4	-4	0.2
C[C@@H]1CN([C@H](C)CO)C(=O)c2cc(NC(=O)CCC(F)(F)F)ccc2O[C@@H](C)CCCCO[C@@H]1CN(C)Cc1ccc2c(c1)OCO2	-2	-1	-1.1
C[C@@H]1CN([C@@H](C)CO)C(=O)c2c(c3ccccc3n2C)-c2ccccc2CO[C@H]1CN(C)Cc1cccc(C(F)(F)F)c1	?	.	.
CN1C(=O)c2cc(NS(=O)(=O)c3ccc(Cl)cc3)ccc2OC[C@@H]2O[C@H](CC(=O)O)CC[C@H]21	3	1	1.4
C[C@@H](O)C#Cc1ccc([C@H]2[C@@H](CO)N3CCCCN(C(=O)c4ccncc4)C[C@@H]23)cc1	5	-4	9.4
O=C(Cc1cccnc1)N1CC(=O)N2[C@H](C1)[C@H](c1ccc(C3=CCCCC3)cc1)[C@@H]2CO	13	7	6.5
C[C@H](CO)N1C[C@H](C)[C@H](CN(C)C(=O)NC2CCCCC2)OCc2cn(nn2)CCCC1=O	-4	0	-4.5
COc1ccc(-c2ccc3c(c2)[C@H]2[C@H](CCN2S(=O)(=O)c2ccc(OC)cc2)[C@H](CO)N3C)cc1	?	.	.
COCC(=O)Nc1ccc2c(c1)C(=O)N(C)C[C@H](OC)[C@@H](C)CN(Cc1cccc(F)c1)[C@@H](C)CO2	1	0	1.2
CN(C)CC(=O)Nc1ccc2c(c1)[C@H]1C[C@@H](CC(=O)NCc3ccccn3)O[C@@H](CO)[C@H]1O2	4	0	4.0
CCCNC(=O)Nc1ccc2c(c1)OC[C@@H](C)N(C(=O)c1ccccc1F)C[C@@H](C)[C@@H](OC)CN(C)C2=O	2	-1	2.4
O=C(Cc1ccccc1)N1CC2(C1)[C@H](c1ccccc1)[C@H](CO)N2C(=O)c1cccnc1	3	2	1.1
N#C[C@@H]1[C@H](c2ccccc2)[C@@H](CO)N1S(=O)(=O)c1cccc(F)c1	-2	4	-5.2
CC(C)[C@@H]1COCc2cn(nn2)CC[C@@H](Cc2ccc(Cl)cc2)C(=O)N1	-2	-3	0.1
C[C@@H]1CN([C@@H](C)CO)C(=O)c2cc(C#C[C@@H](C)O)cnc2O[C@H]1CN(C)C(=O)CN1CCOCC1	-3	-1	-1.8
O=C(C[C@H]1CC[C@H](NC(=O)Nc2ccc(C(F)(F)F)cc2)[C@H](CO)O1)NCc1cccc(F)c1	-7	-4	-2.8
COc1ccccc1C(=O)Nc1ccc2c(c1)C(=O)N(C)[C@H]1CC[C@@H](CC(=O)NCc3ccc(Cl)c(Cl)c3)O[C@H]1CO2	1	0	0.9
COc1ccccc1NC(=O)N1C[C@H]2[C@@H](c3ccccc31)[C@H](CO)N2C(=O)C1CCCC1	1	3	-2.0
C[C@@H]1CN([C@H](C)CO)C(=O)c2ccccc2-c2ccccc2CO[C@@H]1CN(C)Cc1cccc(F)c1	-7	-8	0.6

Given bar-delimited: part of the list above
mol | DUX4 txn inh | DUX4 txn inh difference | DUX4 txn inh control
COc1ccccc1C(=O)Nc1ccc2c(c1)C(=O)N(C)[C@H]1CC[C@@H](CC(=O)NCc3ccc(Cl)c(Cl)c3)O[C@H]1CO2 | 1 | 0 | 0.9
CN(C)CC(=O)Nc1ccc2c(c1)[C@H]1C[C@@H](CC(=O)NCc3ccccn3)O[C@@H](CO)[C@H]1O2 | 4 | 0 | 4.0

Next structures:
SMILES	DUX4 txn inh	DUX4 txn inh difference	DUX4 txn inh control
O=C(CN1CCOCC1)N1CC[C@H]2[C@H](CO)Nc3ccc(-c4ccccc4F)cc3[C@H]21	21	26	-5.8
COc1cccc(S(=O)(=O)N2CCCCN3[C@H](CO)[C@@H](c4ccc(C#CC5CC5)cc4)[C@@H]3C2)c1	?	.	.
C/C=C/c1ccc([C@H]2[C@@H](CO)N(C(=O)C3CCCC3)C23CN(S(C)(=O)=O)C3)cc1	3	4	-1.4
CO[C@@H](CN(C)S(=O)(=O)c1ccccc1)[C@H](C)CN(Cc1ccccc1Cl)[C@H](C)CO	1	0	1.1
CN(C)CC(=O)N1C[C@@H]2N[C@H](C1)C2c1ccc(-c2ccncc2)cc1 (some centres not stated)	7&6	-1&-13	7.9&18
Cc1ccc(-c2ccccc2[C@H]2[C@@H](C#N)N(S(C)(=O)=O)[C@@H]2CO)cc1	-2	-4	1.7
O=C(c1cccnc1)N1CC2(C1)[C@H](c1ccccc1)[C@H](CO)N2C(=O)C1CCC1	-3	-10	7.7
CCN(C[C@H]1[C@@H](c2ccccc2)[C@H](CO)N1CC1CC1)C(=O)c1ccccn1	0	0	-0.4
C[C@@H]1CN([C@@H](C)CO)C(=O)c2cc(-c3cccc(F)c3)cnc2O[C@@H]1CN(C)C(=O)c1cnccn1	-1	1	-2.1
COc1ccc2c3c(n(C)c2c1)[C@H](CO)N(C)CC31CCN(C(=O)c2cccnc2)CC1	10	-1	11
C[C@H]1CN([C@@H](C)CO)C(=O)c2ccccc2-c2ccccc2CO[C@@H]1CN(C)Cc1ccc(C(F)(F)F)cc1	?	.	.
COc1ccc2c3c(n(C)c2c1)[C@H](CO)N(Cc1ccccc1)CC31CN(C(=O)C2CC2)C1	0	1	-1.5
CN(C)C(=O)C[C@H]1CC[C@H]2[C@H](COc3ccc(NC(=O)c4ccc(F)cc4)cc3C(=O)N2C)O1	0	-4	4.0
CCCN1[C@H](CO)[C@H](c2ccc(-c3ccccc3F)cc2)[C@@H]1CNC(=O)C1CCC1	1	3	-2.2
CN1c2ccc(-c3cccc(F)c3)cc2[C@@H]2[C@@H](CCN2C(=O)c2cccc(F)c2)[C@@H]1CO	0	3	-3.6
C[C@H](CO)N1C[C@H](C)[C@@H](CN(C)C(=O)Cc2cccnc2)Oc2ncc(C#Cc3ccccc3F)cc2C1=O	-1	-2	0.4
CS(=O)(=O)Nc1ccc2c(c1)[C@@H]1C[C@@H](CC(=O)N3CCc4ccccc4C3)O[C@H](CO)[C@@H]1O2	8	7	0.8
CO[C@H]1CN(C)C(=O)c2cc(NC(=O)C3CC3)ccc2OC[C@@H](C)N(C(=O)c2ccncc2)C[C@@H]1C	0	-1	1.4
O=C(c1ccccc1)N1CC(=O)N2[C@H](CO)[C@H](c3ccc(C#CC4CC4)cc3)[C@H]2C1	2	0	2.2
C[C@H](CO)N1C[C@H](C)[C@@H](CN(C)Cc2ccc(Oc3ccccc3)cc2)Oc2ccc(NC(=O)NC3CCCCC3)cc2CC1=O	2	-3	5.2
CCCNC(=O)[C@H]1[C@H](CO)[C@H]2Cn3c(ccc(-c4ccccc4F)c3=O)[C@@H]1N2CCC	-1	0	-1.3
O=C(c1ccccn1)N1CC[C@@H]2[C@@H](CO)Nc3ccc(-c4ccccc4F)cc3[C@@H]21	13	16	-2.8
COc1ccc2c3c([nH]c2c1)[C@@H](CO)N(S(=O)(=O)c1cn(C)cn1)CC31CCN(Cc2ccccc2Cl)CC1	-7	10	-18
CN(C)CC(=O)N1[C@H](C#N)[C@H](c2ccc(-c3ccccc3F)cc2)[C@H]1CO	-1	1	-1.3
N#Cc1cccc(-c2ccc(C3[C@H]4CNC[C@@H]3N4Cc3ccc(F)cc3)cc2)c1 (some centres not stated)	?	6	14
O=C([C@@H]1[C@@H](CO)[C@@H]2Cn3c(cccc3=O)[C@@H]2N1CC1CC1)N1CCc2ccccc2C1	1	3	-1.9
COc1cccc(S(=O)(=O)N(C)C[C@@H]2OCc3cnnn3CCCC(=O)N([C@H](C)CO)C[C@@H]2C)c1	-1	2	-2.2
Cc1noc(C)c1NC(=O)Nc1ccc2c(c1)C(=O)N([C@H](C)CO)C[C@H](C)[C@@H](CN(C)C(=O)Nc1cccc3ccccc13)O2	-5	-5	0.3
C[C@@H]1CN([C@H](C)CO)C(=O)c2cc(NC(=O)NC3CCCCC3)ccc2O[C@@H](C)CCCCO[C@@H]1CN(C)Cc1ccc(C(=O)O)cc1	-4	-2	-1.9
CO[C@@H]1CN(C)C(=O)c2ccc(NC(=O)c3cnccn3)cc2OC[C@H](C)N(C(=O)C2CC2)C[C@@H]1C	1	-2	2.7

7 compounds already listed, ordered by molar mass, largest number first.
SMILES	DUX4 txn inh	DUX4 txn inh difference	DUX4 txn inh control
CNC[C@H]1OCCCC[C@H](C)Oc2ccc(NC(=O)c3ccncc3)cc2C(=O)N([C@@H](C)CO)C[C@@H]1C	2	1	0.8
C[C@@H]1CN([C@@H](C)CO)C(=O)CCCn2cc(nn2)CO[C@@H]1CN(C)S(=O)(=O)c1ccc(C#N)cc1	-6	-7	1.1
C[C@@H]1CN([C@@H](C)CO)C(=O)c2cc(-c3cccc(F)c3)cnc2O[C@@H]1CN(C)C(=O)c1cnccn1	-1	1	-2.1
CC(=O)N1[C@@H]2c3ccc(C4=CCCCC4)c(=O)n3C[C@@H]2[C@@H](CO)[C@@H]1C(=O)Nc1ccccc1	-5	-14	8.5
O=C(c1ccccn1)N1CC[C@@H]2[C@@H](CO)Nc3ccc(-c4ccccc4F)cc3[C@@H]21	13	16	-2.8
CN(C)CC(=O)N[C@H]1CC[C@@H](CCNS(=O)(=O)c2ccccc2)O[C@@H]1CO	6	3	2.6
CCN(C[C@H]1[C@@H](c2ccccc2)[C@H](CO)N1CC1CC1)C(=O)c1ccccn1	0	0	-0.4

Going on with the list:
SMILES	DUX4 txn inh	DUX4 txn inh difference	DUX4 txn inh control
CCNC(=O)C[C@H]1CC[C@@H]2[C@H](COC[C@H](O)CN2Cc2ccccc2F)O1	2	4	-1.6
COc1ccc(CNC(=O)C[C@@H]2C[C@@H]3c4cc(NC(=O)CN(C)C)ccc4O[C@@H]3[C@@H](CO)O2)cc1	3	-2	4.8
COc1ccc(S(=O)(=O)Nc2ccc3c(c2)C(=O)N([C@@H](C)CO)C[C@H](C)[C@H](CN(C)C(=O)CCC(F)(F)F)OCCCC[C@H](C)O3)cc1	1	3	-1.9
COC(=O)C[C@@H]1CC[C@@H]2[C@H](COc3ccc(NC(=O)Nc4cccc(C#N)c4)cc3C(=O)N2C)O1	1	0	1.1
CO[C@H]1CC[C@@H]2CCN(C)C(=O)C[C@@H](c3ccccc3)CN(C)C(=O)c3cccc(C#N)c3OC[C@@H]1O2	2	2	-0.4
COc1cccc(-c2cnc3c(c2)C(=O)N([C@@H](C)CO)C[C@@H](C)[C@H](CN(C)C(=O)Nc2ccccc2F)O3)c1	3	1	2.3
O=S(=O)(c1ccc(F)cc1)N1C[C@H]2[C@@H](c3ccccc31)[C@H](CO)N2Cc1ccccc1Cl	1	1	0.2
CC(C)NC(=O)N(C)C[C@H]1OCCCC[C@@H](C)Oc2ccc(NS(C)(=O)=O)cc2C(=O)N([C@H](C)CO)C[C@@H]1C	-1	2	-2.9
CN1CCN(C(=O)C[C@@H]2CC[C@H]3[C@@H](COC[C@H](O)CN3C(=O)C3CCOCC3)O2)CC1	-4	-3	-0.6
C[C@@H]1CN([C@@H](C)CO)C(=O)CCCn2cc(nn2)CO[C@H]1CN(C)C	-2	-3	0.7
CN(C)C(=O)C[C@H]1C[C@@H]2c3cc(NC(=O)Nc4ccccc4F)ccc3O[C@@H]2[C@H](CO)O1	-2	-1	-0.8
O=C(C[C@@H]1CC[C@H]2[C@@H](COC[C@@H](O)CN2Cc2nccs2)O1)NCc1ccc(F)cc1	8	5	3.5
O=C(Nc1cc(F)ccc1F)N1CCCCN2[C@@H](CO)[C@H](c3ccc(-c4cccnc4)cc3)[C@@H]2C1	12	9	2.6
CO[C@H]1CN(C)C(=O)c2cc(NC(=O)C3CC3)ccc2OC[C@@H](C)N(CC2CC2)C[C@@H]1C	1	-2	2.3
CCNC(=O)[C@@H]1N[C@@H]2c3ccc(-c4cccc(C(=O)N(C)C)c4)c(=O)n3C[C@@H]2[C@H]1CO	-2	0	-2.0
COc1ccc2c3c(n(C)c2c1)[C@H](CO)N(Cc1ccncc1)CC31CN(C(=O)Cc2ccncc2)C1	7	3	4.8
C[C@@H]1CN([C@@H](C)CO)C(=O)CCCn2cc(nn2)CO[C@H]1CN(C)C(=O)c1ccc(N2CCN(C)CC2)cc1	3	7	-3.7
O=C(C[C@@H]1CC[C@H]2[C@@H](COC[C@@H](O)CN2Cc2cccc(C(F)(F)F)c2)O1)NCc1ccncc1	10	12	-2.7

Not all compounds are listed; the hit share may differ from the screen's.
